Screens: PubChem BioAssay, The Scripps Research Institute Molecular Screening Center
OX1R antagonist – blocks the human orexin 1 receptor; hit rate 0.43% among 330,000; CHO/OX1R cells, Fluo-8 calcium fluorescence, orexin A; AID 434989; inhibition, % at 5 µM;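 active means inhibition above its plate's threshold, mean inhibition of all tested compounds on the plate plus 3 SD, cut at about 37% in these data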;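 further: 0% = orexin A challenge wells and 100% = SB-334867-A antagonist wells; not every result past the cut was called active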
Target sequence (O43613 whole entry, looked up): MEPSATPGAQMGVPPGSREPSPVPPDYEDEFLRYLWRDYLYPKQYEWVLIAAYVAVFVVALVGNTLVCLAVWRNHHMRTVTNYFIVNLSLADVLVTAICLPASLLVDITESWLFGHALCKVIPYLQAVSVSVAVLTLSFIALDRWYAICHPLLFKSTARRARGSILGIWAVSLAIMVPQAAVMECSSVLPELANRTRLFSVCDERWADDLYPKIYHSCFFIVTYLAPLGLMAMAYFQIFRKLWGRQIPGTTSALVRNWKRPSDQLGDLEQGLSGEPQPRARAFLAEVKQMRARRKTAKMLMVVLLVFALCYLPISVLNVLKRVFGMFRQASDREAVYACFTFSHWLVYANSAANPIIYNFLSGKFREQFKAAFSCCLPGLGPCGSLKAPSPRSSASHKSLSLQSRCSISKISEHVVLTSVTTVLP
* = called active by the depositor; & = joins results of further samples. Not all compounds are listed, and most or all hits are left out here.

SMILES | OX1R antagonist
CC12CCC(=O)N1C(C(=O)NCCN1C(=O)S/C(=C\c3ccccc3F)C1=O)CS2 (configuration not stated) | -20
CCCC12CN3CC(C)(CN(C1)C3c1ccc(OC(C)C)cc1)C2=O (configuration not stated) | -21
O=C(Nc1ccc(Nc2ccccc2)cc1)c1ccco1 | 0
COc1ccc(-n2c(C)cc(C(=O)CN3CCCCC3)c2C)cc1 | -48
COC(=O)C(NC(C)=O)(Nc1ccc(C)cn1)C(F)(F)F (configuration not stated) | -12
CCOC(=O)c1ccccc1N1C(=O)CSC1=S | -10
COc1ccc(Cl)cc1NC(=O)CN1CCN(S(=O)(=O)N2CCCCC2)CC1 | -17
O=C(O)C1C2C=CC(O2)C1C(=O)Nc1cccc(C(F)(F)F)c1 (configuration not stated) | -11
Cc1cc(NC(=O)c2cccs2)n(-c2ccccc2)n1 | 2
CCOC(=O)CSc1nnc(NC(=O)c2cccc([N+](=O)[O-])c2C)s1 | -24
CCCNC(=O)N1CCN(S(=O)(=O)c2ccc(C)cc2)CC1 | -21
Cc1ccc(NC(=O)C2CCN(S(=O)(=O)c3c(C)[nH]c(=O)[nH]c3=O)CC2)cc1 | 11
COc1ccc(C(F)(F)F)cc1N/C=C\c1nnnn1-c1ccccc1 | -20
COc1ccc(/C=C/C(=O)CC(O)(c2ccccc2)C(F)(F)F)cc1 (configuration not stated) | -28
O=C(COc1ccc(Cl)cc1Cl)NC(=S)Nc1ccccc1C(=O)O | -21
O=C(CCC1CCCC1)Nc1cc(C(F)(F)F)ccc1N1CCOCC1 | -25
CCNc1nc(NCC)nc(SCCOC(=O)c2ccccc2)n1 | -31
Cc1nn(-c2ccc(F)cc2)c(Cl)c1C(=O)N(C)CC(=O)Nc1cccc(F)c1 | -31
COc1ccccc1Nc1nc(C)cc(C)c1C(N)=O | -20
CCOP(=O)(OCC)c1ccccc1OCP(C)(=O)COc1ccccc1P(=O)(OCC)OCC | -5
O=C(Nc1ccccc1C(=O)Nc1ccccc1)c1cccs1 | -28
CC(C)(C)c1cccc(P(=O)(c2ccccc2)c2ccccc2)c1O | -32
CCCCNC(=O)CCCCn1c(=S)[nH]c2c([nH]c3ccc(OC)cc32)c1=O | -8
Cc1ccc(C(CC(N)=O)c2ccco2)cc1 (configuration not stated) | 2
O=C(Cn1c(=O)c(=O)n(Cc2ccccc2)c2ccc(Cl)cc21)NCC1CCCO1 (configuration not stated) | -6

Compounds above with an aryl methoxy group (six):
SMILES | OX1R antagonist
COc1ccc(-n2c(C)cc(C(=O)CN3CCCCC3)c2C)cc1 | -48
COc1ccc(Cl)cc1NC(=O)CN1CCN(S(=O)(=O)N2CCCCC2)CC1 | -17
COc1ccc(C(F)(F)F)cc1N/C=C\c1nnnn1-c1ccccc1 | -20
COc1ccc(/C=C/C(=O)CC(O)(c2ccccc2)C(F)(F)F)cc1 (configuration not stated) | -28
COc1ccccc1Nc1nc(C)cc(C)c1C(N)=O | -20
CCCCNC(=O)CCCCn1c(=S)[nH]c2c([nH]c3ccc(OC)cc32)c1=O | -8

(continued)
SMILES | OX1R antagonist
C=CCNC(=S)Nc1ccc(OC)c(S(=O)(=O)N2CCOCC2)c1 | 1
NC(=O)CCC(NS(=O)(=O)c1ccc(Cl)cc1)C(=O)NCc1ccccc1 (configuration not stated) | -16
Cc1ccc(S(=O)(=O)CC(=O)c2ccc(C)c([N+](=O)[O-])c2)cc1 | 1
COC(=O)c1c(CSc2ccc(C)c(C)c2)noc1C(=O)NCc1ccc(OC)cc1 | -22
COc1ccc(/C=N/NC(=O)c2cccnc2)cc1CN1CCc2cc(OC)c(OC)cc2C1C (configuration not stated) | -33
O=C(c1ccc(-c2cccc(C(F)(F)F)c2)o1)N1CCOCC1 | -5
COc1ccc(C2CC(=O)Oc3c(C(CCN4CCOCC4)c4cc(OC)c(OC)c(OC)c4)c(OC)cc(OC)c32)cc1 (configuration not stated) | -35
CCN1CCCc2cc(CN(CCN3CCOCC3)C(=S)Nc3cc(F)cc(F)c3)ccc21 | -35
CC1(C)CNC(=O)c2sc(NC(=O)c3ccccc3)nc2C1 | 3
Cc1ccc(C2C3=C(CC(C)(C)CC3=O)NC3=C2C(=O)CC(C)(C)C3)o1 | -33
O=C(COC(=O)c1cc(Cl)nc2ccccc12)c1ccc(Cl)cc1 | 4
CCOC(=O)c1[nH]c(C)c(C(=O)Nc2cc(OC)ccc2OC)c1C | -36
CSc1nc(N)nc(SC2C=CCCC2)c1C#N (configuration not stated) | -33
O=C(c1cc(-c2ccncc2)nc2ccc(Br)cc12)N1CCN(c2ccccn2)CC1 | -37
COC(=O)c1ccc2c(=O)n(CCCCCC(=O)N3CCN(c4ccc(F)cc4)CC3)c(=O)[nH]c2c1 | -12
CC(C)Oc1ccc(CNC(=O)Cn2c(=O)oc3ccccc32)cc1 | -14
CCOC(=O)C1CCCN(CC(O)COC(c2ccccc2)c2ccccc2)C1 (configuration not stated) | -17
C=Cc1ccc2c(c1)N(C)C(=C)S2 | -21
CCOc1ccc(C(C#N)N2CCOCC2)cc1OC (configuration not stated) | 6
CCOc1ccc(NC(=O)Cc2nnc(SCC(=O)N3CCOCC3)n2C)cc1 | -7
COc1ccccc1NC(=O)c1sc2nc(C)cc(C)c2c1N | -24
O=C(CSc1nccn(-c2ccc(F)c(Cl)c2)c1=O)NC1CCCC1 | -10
CCOc1ccccc1-c1nc(-c2ccc(NC(=O)Cc3ccccc3OC)cc2)no1 | 7
Cc1ccc(C(=O)CC2(O)C(=O)N(Cc3ccccc3Cl)c3ccccc32)o1 (configuration not stated) | -24
O=C(c1cnn2c(C(F)(F)F)cc(-c3ccc4c(c3)OCO4)nc12)N1CCCCC1 | -11

The results go on:
SMILES | OX1R antagonist
CC(C)[C@H](NC(=O)[C@@H]1Cc2ccccc2CN1C(=O)OC(C)(C)C)C(=O)NC1CCCC1 | -8
O=C(/C=C/Nc1ccc(F)c(Cl)c1)c1ccccc1 | -23
O=C(O)CCCNC1=NCCC1 | -19
COC(=O)CSc1nnc(CNC(=O)c2ccccc2F)n1-c1ccccc1 | 6
NS(=O)(=O)c1ccc(CCNC(=O)CCc2nc3sc4c(c3c(=O)[nH]2)CCCC4)cc1 | -15
Cc1nc(C)c(-c2ccn(C(=O)NC(C)C)n2)s1 | -13
COC(=O)CCC(=O)NC(=S)Nc1ccccc1F | 12
CCOc1ccc(/C=C/C(=O)Oc2ccccc2)cc1 | -12
CCN1CCN(c2ccc(S(=O)(=O)N3CCOCC3)cc2NC(=O)/C=C/c2ccc(OC)c(OC)c2)CC1 | -17
COc1ccc2nc(NC(=O)CSc3nccc(C)n3)sc2c1 | -18
CCOC(=O)C1=C(C)NC(=S)NC1c1cccs1 (configuration not stated) | -3
CC(=O)Nc1ccc(S(=O)(=O)NC(C(=O)O)C2=CCC=CC2)cc1 (configuration not stated) | -19
CC(C)C(c1nnnn1CCc1ccccc1)N1CCSCC1 (configuration not stated) | -31
CCN(CC)c1ccc(NC(=O)COC(=O)C23CCC(=O)N2c2ccccc2S3)cc1 (configuration not stated) | -1
CCOC(=O)N1CCC(Nc2c(-c3ccccc3)c(=O)c2=O)CC1 | -13
CCN(CC)CC(O)Cn1c(-c2cccc(Cl)c2)nc2cc(C)c(C)cc21 (configuration not stated) | -30
COc1cc(Cc2cnc(N)nc2N)cc(OC)c1OC | -11&-4
COCCN(C(=O)COc1ccccc1)c1nnc(-c2cccnc2)s1 | 4
COC(=O)CSc1nc2cc(Cl)ccc2c(=O)n1C1CCCC1 | -33
O=C(CNC1CCCC1)Nc1ccc(S(=O)(=O)N2CCCCC2)cc1 | -6
O=C(O)CC(=O)NC12CC3CC(CC(C3)C1)C2 | -6&-3
N#Cc1c(-c2ccccc2Cl)cc(-c2ccccc2)nc1Br | -36
CCc1cc(=O)oc2c3c(cc(OCC(=O)NCc4cccnc4)c12)OC(C)(C)CC3 | -28
O=C(O)/C=C/c1cccc(NS(=O)(=O)c2ccccc2)c1 | 7
COc1cc2[nH]c(=S)n(CCN3CCOCC3)c(=O)c2cc1OC | -14

Ordered by molar mass (rising): part of the list above.
SMILES | OX1R antagonist
CCOC(=O)N1CCC(Nc2c(-c3ccccc3)c(=O)c2=O)CC1 | -13
CC(=O)Nc1ccc(S(=O)(=O)NC(C(=O)O)C2=CCC=CC2)cc1 (configuration not stated) | -19
CCN(CC)CC(O)Cn1c(-c2cccc(Cl)c2)nc2cc(C)c(C)cc21 (configuration not stated) | -30
COC(=O)CSc1nnc(CNC(=O)c2ccccc2F)n1-c1ccccc1 | 6

(listing goes on)
SMILES | OX1R antagonist
Cc1nc(-c2ccccc2)sc1C(=O)/C=C/c1ccccc1 | -3
Cc1ccc(-n2c(O)c(/C=N/n3cnnc3)c3ccccc3c2=O)cc1 | -6&-16
Cc1ccccc1-n1ncc2c1CC(C)(C)CC2NC(=O)CSc1ccncc1 (configuration not stated) | -27
CN(Cc1cnn(C)c1)Cc1nc(C(c2ccccc2)c2ccccc2)no1 | -24
O=C(CCc1ccccc1)N1CCN(c2ccccc2F)CC1 | -21
CCOC(=O)C1CCN(c2c([N+](=O)[O-])c(C(Cl)Cl)nn2-c2ccccc2)CC1 | 3
COc1ccc(C2C3=C(CCCC3=O)N(CC(=O)O)C3=C2C(=O)CCC3)cc1 | -13
O=C(Cc1c(Cl)cccc1Cl)NCCc1ccc(Cl)cc1 | -15
Cc1ccc2[nH]c3c(=O)n(CCCN4CCN(C)CC4)cnc3c2c1 | -9
CC(Nc1n[nH]c(=O)[nH]c1=O)C(=O)N/N=C/c1ccccc1 (configuration not stated) | -11
Cc1cc(Nc2ccccc2)c2c([N+](=O)[O-])c(C)cc(C)c2n1 | -34
CC1(C)CC(=O)C(C=N)=C(O)C1 | -15
CCOC(=O)Cc1csc(NS(=O)(=O)c2ccc(C(F)(F)F)cc2)n1 | -23
O=C(O)CCSc1ccccn1 | 3
CCC(C(=O)NCCc1ccccc1OC)n1nc(C)c2c(C)n(-c3ccccc3)nc2c1=O (configuration not stated) | -43
O=C(NCc1ccc2c(c1)OCO2)c1ccc(S(=O)(=O)C(F)F)cc1 | -8
CC(C)CN(C(=O)COC(=O)C1CC1)c1c(N)n(Cc2ccccc2)c(=O)[nH]c1=O | -11
O=C(CN1C(=O)CCSc2ccccc21)Nc1ccc2c(c1)OCCO2 | -11
Cc1ccc(/C=N/N2CCN(Cc3ccccc3)CC2)cc1 | -14
O=C(O)C1CN(c2ncccc2[N+](=O)[O-])C1 | -7
Nc1nc(CN2CCN(Cc3ccccc3)CC2)nc(Nc2ccc3c(c2)OCCO3)n1 | -32
N=c1ccn2c(n1)OC1C(O)C(CO)OC12 (configuration not stated) | -19
Cc1c(/C(O)=C2\C(=O)C(=O)N(CCN(C)C)C2c2ccccc2)cnn1-c1ccccc1 (configuration not stated) | -14
CCCCCNC(=O)c1ccc2c(=O)n(CC3CCCO3)c(=O)[nH]c2c1 (configuration not stated) | 2
CC12COC3(C(=O)Nc4ccccc4F)CC1CCC32C (configuration not stated) | -4

Next results follow:
SMILES | OX1R antagonist
Cc1[nH]ccc(=O)c1Oc1ncc(C(F)(F)F)cc1Cl | 6
COCCOc1cc(NC(=O)CS(=O)CC(=O)N(C)C)c(Cl)cc1Cl (configuration not stated) | -13
COc1ccc(C2SCC(=O)N2CCCN(C)C)cc1 (configuration not stated) | -11
CCCN1CCN(S(=O)(=O)c2ccc3c(c2)OCCO3)CC1 | -16
O=C(NCCN1CCOCC1)C(=O)NCc1ccco1 | 10
C=C(C)C(=O)NNc1ccccc1 | -22
Cc1cc(Cl)c(S(=O)(=O)Nc2ccon2)cc1OCC(=O)NC1CCCCC1 | -8
O=C(c1cc2ccccc2oc1=O)N(Cc1cccs1)Cc1ccccc1Cl | -18
CCCN(Cc1nnc(-c2ccccc2Cl)o1)C(=O)c1cc2ccccc2o1 | -37
CCN(CC(=O)NCc1ccccn1)S(=O)(=O)c1ccc(Cl)cc1 | -34
O=C(Cn1c(C(F)(F)F)nc2ccccc21)N1CCCC1 | -21
CCOC(=O)C(=NC1CCCCC1)NNc1cccc(C(F)(F)F)c1 | -19
c1ccc(-c2nnc(-c3ccncc3)o2)cc1 | -5
C/C(=N\O)C(=O)NCCCNCCCN(C)C | -18
COc1cc(NC(=O)CN2C(=O)NC(c3ccccc3)(c3ccccc3)C2=O)c(C)cc1[N+](=O)[O-] | -15
CCCNC(=O)N1CCC(Cc2ccccc2)CC1 | -8
Cc1ccc(S(=O)(=O)Nc2c(C)n(C)n(-c3ccccc3)c2=O)cc1C(=O)OC(C)C(=O)N(C)c1ccccc1 (configuration not stated) | -34
O/N=C1/CCCCC1c1ccccn1 (configuration not stated) | -12
O=C(Nc1nnc(-c2ccccc2)s1)c1cc(S(=O)(=O)N2CCOCC2)c(Cl)cc1Cl | 1
COc1ccc2c(=O)c(N3C(=O)c4ccccc4C3=O)c(C)oc2c1 | -13
O=C(COC(=O)c1ccc(Br)cc1)NCCC1=CCCCC1 | -17
COC(=O)C1=CO[C@@H](O[C@@H]2O[C@H](CO)[C@@H](O)[C@H](O)[C@H]2O)C2C1C=C[C@@]2(O)CO (some centres not stated) | -13
N#C/C(=N\Nc1ccccc1F)C(=N)N1CCCCC1 | -8
Cc1nn(CC(=O)NCCc2ccc(Cl)cc2Cl)c(C)c1[N+](=O)[O-] | -21
COc1cc(NC(=O)CN(C)CCOc2ccccc2)c(C)cc1[N+](=O)[O-] | -32
Cc1c(CC(=O)NCCCCCC(=O)O)c(=O)oc2cc3occ(-c4ccccc4)c3cc12 | -12
c1cnn(Cc2cnc(N3CCOCC3)s2)c1 | -7
Cc1ccc(NCc2nnc(SCC(=O)N(Cc3ccccc3)C(C)(C)C)o2)c(C)c1 | -29

Shown as tab-separated lines: 2 of the compounds above
structure	OX1R antagonist
Cc1nn(CC(=O)NCCc2ccc(Cl)cc2Cl)c(C)c1[N+](=O)[O-]	-21
COc1cc(NC(=O)CN(C)CCOc2ccccc2)c(C)cc1[N+](=O)[O-]	-32
